# HTT promoter inh: inhibits huntingtin promoter activity | hit rate 0.93% among 48,000 | HEK293 HTT promoter firefly luciferase reporter (activity 0% = vehicle and -100% = no light), 24 h | AID 1508623 | Potency, µM (series often up to 57.5 µM), inactives show at the highest dose activity change, negative = inhibition, hits mostly inhibitors; active = well fitted inhibition curve with a large enough effect; inconclusive = small, poorly fitted or top-dose-only effect; inactive = no such curve, though single readings can be large or run the other way; also: nearly all actives have a fitted effect of over 50% in size
#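 Luminescence was read after Dual-Glo reagent and a 10 min room-temperature incubation. Values were normalized to vehicle (0% activity) and zero RLU (-100% activity). Reporter HEK293 cells had been exposed to compounds (up to 57.5 uM final) for 24 h.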
# PMP22 txn: modulates PMP22 transcription in S16 Schwann cells | hit rate 2% among 43,000 | S16 Pmp22-F2sN Schwann cells (luciferase reporters placed in the Pmp22 gene), FLuc/NLuc coincidence luminescence, 24 h | Potency, µM (top dose mostly 57.5 µM), without a hit: at the top dose activity change, negative = inhibition, hits mostly inhibitors; active = clear falling dose curves in both reporters; inconclusive = both reporters move, but less clearly or upward; inactive = either reporter flat; the % is the NLuc reporter signal; also: % is scaled to controls: 0 for no effect and ±100 for the full control effect; some results filed as inactive show a strong effect at the top dose
#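 Transcriptional readout in edited S16(c9) cells: two luciferases reported from the Pmp22 locus, measured in turn after 24 h compound incubation.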
# The depositor's hits bear a star; ? = inconclusive; . = no result given; & = joins results of further samples; [ ] = another dose, or the depositor's remark. Potency is read from the fitted curve at half-maximal effect. This is a random part of the collection; overall some 2.6% were active at least once.
# Results follow in this order: HTT promoter inh | PMP22 txn
COc1ccc(CNC(=O)C2CCCN(S(=O)(=O)N(C)c3ccc(F)cc3)C2)cc1OC (centres undefined)
  ? | -6.5%
CCCCC(CC)COC(=O)/C=C/c1ccc(OC)cc1 (centres undefined)
  14.3% | .
COc1cc(Cl)c(C)cc1NC(=O)c1cn(CC(C)C)c(=O)c2cc(OC)c(OC)cc12
  -7.3% | -1.8%
CC1CCCN(C(=O)CCS(=O)(=O)c2cc3c(cc2Cl)NC(=O)CO3)C1 (centres undefined)
  -5.2% | -42.2%
O=C(CSc1nc2c([nH]c3ccccc32)c(=O)n1-c1ccc(F)cc1)N1CCc2ccccc21
  -11.6% | -6.1%
CCCN1CCN(c2ncnc3sc(C(=O)Nc4ccc(N(CC)CC)cc4C)c(C)c23)CC1
  -36.6% | ?
CCOC(=O)c1cc(S(=O)(=O)Nc2cc(OC)ccc2OC)[nH]n1
  -18.5% | -4.0%
CC(C(O)c1ccccc1)N(C)CCOC(c1ccccc1)c1ccccc1 (centres undefined)
  -25.6% | .
C=CCc1cc(OC)c(O)c(C(=O)NCCO)c1
  -7.9%&-3.2% | .
N#Cc1ccc(NC(=O)COCc2cc(-c3ccc(F)cc3)on2)cc1
  4.1% | 1.9%
CCN(CC)S(=O)(=O)c1ccc2c(c1)N(CC(=O)N1CCN(c3ccc(OC)cc3)CC1)C(=O)CO2
  -9.8% | ?
COc1cc(C(=O)Nc2ccc3c(c2)N(C2CCCC2)C(=O)c2ccccc2S3)cc(OC)c1OC
  3.8% | -73.3%
Cc1ccc(NC(=O)c2ccc(CN3CCN(C)CC3)cc2)cc1Nc1nccc(-c2cccnc2)n1
  13.0%&10.1% | .
O=C(Cn1ncc2c3ccccc3n(Cc3ccc(Cl)cc3)c2c1=O)NCc1cccs1
  -16.4% | ?
COc1cccc(-n2cc(C(=O)Oc3cccc(C(F)(F)F)c3)c3ccccc3c2=O)c1
  -11.2% | -7.6%
COc1ccccc1-c1noc(-c2ccc(N(C)Cc3ccccc3)c([N+](=O)[O-])c2)n1
  -11.7% | 4.4%
COC(=O)c1ccc(OCC2c3cc(OC)c(OC)cc3CCN2C(=O)c2ccccc2F)cc1 (centres undefined)
  ? | ?
Cc1cnc(Nc2ccc(F)cc2Cl)nc1-c1c[nH]c(C(=O)N[C@H](CO)c2cccc(Cl)c2)c1
  ? | .
COC1CCC(C(=O)c2ccc3nc4c(cc3c2)CCCO4)CC1 (centres undefined)
  -13.4% | .
CC(=O)Nc1cc(C(=O)Nc2ccc3c(c2)N(C)C(=O)c2ccccc2S3)ccc1C
  -7.1% | 1.7%
COc1ccc(NC(=O)Cn2c(=O)n(-c3ccc(C)cc3)c(=O)c3c2cnn3C)cc1
  -11.7% | 18.2%
O=C(NCc1cccnc1)C1CCN(Cc2cc3ccccc3n2Cc2ccccc2)CC1
  -16.4% | -8.6%
CC1CCN(C(=O)Cn2cc(SCc3cccc(F)c3)c3ccccc32)CC1
  -17.4% | ?
Cc1ccc(CCNC(=O)CCS(=O)(=O)c2cc3c(cc2Cl)NC(=O)CO3)cc1
  -1.1% | -12.1%
CCCc1nn2c(=O)cc(COC(=O)c3ccccc3NC(=O)C3CCCCC3)nc2s1
  -10.4% | ?
COc1cc(C)ccc1OCCSc1nc2ccc(NC(=O)c3ccc4c(c3)OCO4)cc2s1
  -28.7% | -29.4%
COc1ccc(N(Cc2cccs2)C(=O)c2ccc(OCC(C)C)cc2)cc1
  -29.3% | -4.5%
C[N+]1(C)CCC(OC(=O)C(O)(c2ccccc2)C2CCCC2)C1 (centres undefined)
  -3.9% | .
CCSc1nc2c([nH]c3ccccc32)c(=O)n1-c1ccc(F)cc1
  -11.4% | ?
Cc1cccc(N(CC(=O)Nc2cccc(Cl)c2C)S(C)(=O)=O)c1C
  -26.4% | -4.7%
COc1ccc(N2CCN(c3ncccc3-c3nc(-c4ccccc4C)no3)CC2)cc1
  -4.6% | 1.3%
CCOC(=O)c1cc(-c2ccc(C)cc2)n(CCC(=O)Nc2ccc(C(C)C)cc2)c1C
  ? | ?
COc1cc(C(=O)Nc2ccc(-c3nc4cc(C)c(C)cc4o3)cc2)cc(OC)c1OC
  -9.6%[11.5 µM] | 7.1%
COc1cccc(C(=O)NCc2cn3cccc(C)c3n2)c1
  1.8% | -13.1%
Cc1ccc(-n2nnnc2SCC(=O)NCCc2ccccc2)cc1C
  7.9% | -22.1%
CCCCCCC(=O)Nc1ccc2nc3c(=O)n(C)c(=O)n(C)c3nc2c1C
  -8.8% | -16.3%
CCOc1ccc(OCC(=O)NCCS(=O)(=O)N2CCN(c3ccc(F)cc3)CC2)cc1
  -27.5% | -13.6%
O=C(CSc1c2c(nc3ccc(Cl)cc13)CCCC2)N1CCN(c2ccc(Cl)cc2)CC1
  2.1% | ?
Cc1cc(C)c(Cn2c3ccccc3c3cnn(CC(=O)NC4CCC(C)CC4)c(=O)c32)c(C)c1 (centres undefined)
  -25.4% | 14.4%
CCOC(=O)c1c(NC(=O)CSc2nc(-c3ccc(OC)cc3)cc(C(F)(F)F)n2)sc(C)c1C
  -6.9% | -24.3%
O=C(Cn1cnc2onc(-c3ccc(Cl)cc3)c2c1=O)Nc1ccc(F)cc1
  -12.7% | ?
CCCC(=O)c1ccc(OC(=O)c2c(-c3ccccc3Cl)noc2C)cc1
  ? | ?
COc1ccc(NC(=O)N2CCc3c(sc4c3CCCC4)C2c2ccccc2OC)cc1 (centres undefined)
  -6.0% | -16.0%
O=C(Nc1cccc(-c2nc3ccccc3[nH]2)c1)c1ccccc1F
  -5.2% | -3.2%
CCOC(=O)CSc1nc(-c2ccc(OC)cc2)cc(C(F)(F)F)c1C#N
  -17.2% | -25.3%
CC(C)c1ccc(NS(=O)(=O)c2ccc3[nH]c(=O)ccc3c2)cc1
  ? | 6.8%
Cc1ccc(CNCc2cccn2-c2nnc(N3CCCC3)s2)cc1
  -33.9% | -75.9%
COc1ccc(OCc2nc(C#N)c(NCc3ccccc3Cl)o2)cc1
  -26.8% | ?
COc1ccc(NC(=O)c2oc3ccc(S(=O)(=O)N4CCOCC4)cc3c2C)cc1
  ? | 14.2%
O=C(NCCc1ccccc1)c1nn(-c2ccc(F)cc2)nc1CO
  6.9% | 6.3%
CCC(=O)N1CCc2cc(S(=O)(=O)NC(Cc3ccccc3)C(=O)Nc3ccc(C)cc3)ccc21 (centres undefined)
  -23.3% | 0.7%
C=CCNC1=C2C[C@@H](C)C[C@H](OC)[C@@H](O)[C@@H](C)C=C(C)[C@H](OC(N)=O)[C@@H](OC)C=CC=C(C)C(=O)NC(=CC1=O)C2=O
  ? | .
CCCCn1c(=O)n(CC2CCC(C(=O)NCCCOC)CC2)c(=O)c2sccc21 (centres undefined)
  5.7% | -6.0%
CCc1ccc(-n2nc(CO)c(C(=O)NCCOC)n2)cc1
  28.9% | 6.3%
CCOc1ccccc1Oc1ncnc2c1oc1ccccc12
  -25.8% | -22.0%
CC(=O)c1ccc(NS(=O)(=O)c2cc(-c3cc(C)no3)ccc2C)cc1
  ? | ?
CC(=O)Nc1ccc2nc3c(=O)n(C)c(=O)n(C)c3nc2c1C
  0.3% | -3.1%
COc1cc(OC)c(N(C)C(=O)CSc2c3c(nc4ccc(Cl)cc24)CCCC3)cc1Cl
  ? | ?
Oc1ccc(Cl)cc1C1=Nc2ccccc2N=C(c2ccccc2)C1
  -0.9% | -10.3%
CCCSc1ncc(Cl)c(C(=O)Nc2sc3c(c2C(=O)NCC)CCCC3)n1
  -12.0% | 5.15µM*

# A second format for part of the listing above.
molecule | HTT promoter inh | PMP22 txn
CC(=O)c1ccc(NS(=O)(=O)c2cc(-c3cc(C)no3)ccc2C)cc1 | ? | ?
CC(=O)Nc1ccc2nc3c(=O)n(C)c(=O)n(C)c3nc2c1C | 0.3% | -3.1%
COc1cc(OC)c(N(C)C(=O)CSc2c3c(nc4ccc(Cl)cc24)CCCC3)cc1Cl | ? | ?

# Following part.
# Results follow in this order: HTT promoter inh | PMP22 txn
CCc1ccc(-n2nc(C)c3c(C(=O)Nc4cccc(C(F)(F)F)c4)cc(C)nc32)cc1
  ? | ?
CCc1ccc2c(c1)c(=O)c(S(=O)(=O)c1ccc(Cl)cc1)cn2CC
  -39.1% | -1.3%
Cc1cc(C)c2c(=O)cc(C(=O)Nc3sc4c(c3C(=O)NCc3ccco3)CCCC4)oc2c1
  5.3% | -19.4%
CC[C@]12C=CCN3CC[C@@]4(c5cc([C@@]6(C(=O)OC)C[C@H]7C[C@@H](C(C)(F)F)CN(Cc8c6[nH]c6ccccc86)C7)c(OC)cc5N(C)[C@H]4[C@@](O)(C(=O)OC)[C@H]1OC(C)=O)[C@@H]32
  ? | .
O=C(CCNS(=O)(=O)c1ccc2c(c1)CCN2C(=O)C1CC1)Nc1ccc(OC(F)(F)F)cc1
  -40.3% | -20.6%
CCCn1c(CCC(=O)Nc2ccc(C)c(Cl)c2)nc2cccnc21
  -37.2% | -5.7%
O=C(Cn1c2ncccc2c(=O)n1-c1ccccc1)Nc1cccc(C(F)(F)F)c1
  -38.1% | -28.5%
Cc1ccc2c(c1)c(=O)c(C(=O)c1ccncc1)cn2CC(=O)Nc1c(C)cccc1C
  -10.6% | 9.3%
COc1ccc2c(Sc3ccc(Cl)cc3)c(C(=O)N3CCCCC3)[nH]c2c1
  ? | ?
COc1cccc(CNC(=O)CCNS(=O)(=O)c2ccc3c(c2)oc(=O)n3C)c1
  -7.0% | 9.4%
Cc1ccc(CNC(=O)CCCN2C(=O)COc3ccc(C)cc32)cc1
  -1.6% | -24.4%
CCCCNc1sc(S(=O)(=O)CCC)nc1S(=O)(=O)c1ccc(C)cc1
  -20.3% | -15.0%
COc1ccc(C)cc1NC(=O)CN1c2ccccc2S(=O)(=O)c2ccccc21
  -38.8% | 20.1%
COc1cccc(N2CC(NC(=O)/C=C\c3ccc(OC)c(OC)c3)CC2=O)c1 (centres undefined)
  1.1% | 13.5%
CCOc1ccc(-c2nnc(SCC(=O)NC3CCCCC3)nc2-c2ccc(OCC)cc2)cc1
  -0.5% | 38.4%
Cc1ccc(NC(=O)CN2C(=O)C3(SCC(=O)N3c3ccc(F)c(F)c3)c3ccccc32)c(C)c1 (centres undefined)
  -27.6% | ?
CCSc1nc(-c2ccc(Cl)cc2)nc2c1Cc1c(CO)cnc(C)c1O2
  -14.5% | ?

# A few values from the results shown.
# `COc1cccc(CNC(=O)CCNS(=O)(=O)c2ccc3c(c2)oc(=O)n3C)c1` | PMP22 txn: 9.4%
# `CCOc1ccc(-c2nnc(SCC(=O)NC3CCCCC3)nc2-c2ccc(OCC)cc2)cc1` | HTT promoter inh: -0.5%
# `CCSc1nc(-c2ccc(Cl)cc2)nc2c1Cc1c(CO)cnc(C)c1O2` | HTT promoter inh: -14.5%
# `Cc1ccc(CNC(=O)CCCN2C(=O)COc3ccc(C)cc32)cc1` | HTT promoter inh: -1.6%

# Entries listed so far with a furan ring, fused or not, in the order listed:
# Results follow in this order: HTT promoter inh | PMP22 txn
COc1ccc(NC(=O)c2oc3ccc(S(=O)(=O)N4CCOCC4)cc3c2C)cc1
  ? | 14.2%
CCOc1ccccc1Oc1ncnc2c1oc1ccccc12
  -25.8% | -22.0%
Cc1cc(C)c2c(=O)cc(C(=O)Nc3sc4c(c3C(=O)NCc3ccco3)CCCC4)oc2c1
  5.3% | -19.4%

# Screens: PubChem BioAssay, National Center for Advancing Translational Sciences (NCATS)
